# GIV Gai3 FP: inhibitors of GIV peptide binding to Galpha-i3, primary screen, biochemical, fluorescence polarization, FITC-GIV GBA peptide, rat Galphai3; Guanine nucleotide-binding protein G(i) subunit alpha-3 (Rattus norvegicus), P08753; hit rate 0.42% among 210,000; 90 min; active compounds read low; scaled: aluminum fluoride 0%, vehicle 100%; AID 1224905, 2016; percent of control (FP), % (test concentration not listed);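 active means replicate mean at 85% of control or lower, very high polarization wells dropped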;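 further: lower values mean more displacement of the GIV peptide from Galpha-i3; wells of about 15 µL received 100 nL stock; the first replicate is given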
# Target sequence (P08753 whole entry, looked up): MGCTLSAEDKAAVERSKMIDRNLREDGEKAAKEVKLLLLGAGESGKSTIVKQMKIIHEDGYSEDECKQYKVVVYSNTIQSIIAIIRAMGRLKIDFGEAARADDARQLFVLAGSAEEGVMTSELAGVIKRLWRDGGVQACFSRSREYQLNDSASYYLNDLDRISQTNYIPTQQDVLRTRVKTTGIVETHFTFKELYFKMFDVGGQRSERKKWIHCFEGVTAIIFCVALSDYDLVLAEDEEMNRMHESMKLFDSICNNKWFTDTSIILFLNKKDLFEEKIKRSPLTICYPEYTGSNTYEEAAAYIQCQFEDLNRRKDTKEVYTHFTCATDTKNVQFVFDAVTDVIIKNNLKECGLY
# The depositor's hits bear a star. This is a subset, so the mix of outcomes need not match the whole.
no. | compound | GIV Gai3 FP
1 | COc1ccc(-n2c(=S)[nH]c3cc(C(=O)N4CCN(c5ccccc5)CC4)ccc3c2=O)c(OC)c1 | 110
2 | Cc1cc(C)c(CNS(=O)(=O)c2cc(-c3nc(C)c(C)s3)cs2)c(C)c1 | 99
3 | O=[N+]([O-])c1ccc(-c2nc(Nc3cccc(O)c3)c3ccccc3n2)cc1 | 102
4 | Cc1cc(NC(=O)CCc2nc(CSc3nc4ccccc4s3)no2)ccc1Br | 105
5 | CCOC(=O)C1=CN(Cc2ccc(F)cc2)C=C(C(=O)OCC)C1c1cc2c(cc1Br)OCO2 | 111
6 | O=C(Nc1cccnc1)c1nc(-n2cnnc2)ccc1Br | 102
7 | CCN(CC)CCNC(=O)c1sc2ncnc(N3CCN(c4ccccc4OC)CC3)c2c1C | 103
8 | COC(=O)c1c(NC(=O)c2ccc(S(=O)(=O)N3CCCC3)cc2)sc2c1CCN(C(C)C)C2 | 231
9 | CCOC(=O)c1ccc(-n2c(=S)sc3c2nc(SCC(=O)Nc2ccc(N(C)C)cc2)n2c4ccccc4nc32)cc1 | 107
10 | Cc1ccccc1CSc1nnc2n(CCC(=O)NC(C)C)c(=O)c3ccccc3n12 | 102
11 | Cc1ccc(-c2nc(C3CCN(S(=O)(=O)c4ccc(F)cc4)CC3)no2)cc1 | 97
12 | N#Cc1cnc2sc3ccccc3n2c1=N | 101
13 | COC(=O)c1cnc(N2CCCCC2C)c2ccccc12 (configuration not stated) | 104
14 | CC(C)c1ccc(C(=O)N2CCN(c3ccnc(-c4cccc(F)c4)n3)CC2)cc1 | 102
15 | CCOC(=O)c1sc(NC(=O)CSc2nnc(CNC(=O)c3ccccc3OC)n2C)c(C(=O)OCC)c1C | 103
16 | COCc1cnc2c(c1SCC(=O)OC)c(=O)n(C)c(=O)n2C | 103
17 | CCSc1nccc2c1ccn2CC(=O)NCc1ccc(OC)c(OC)c1 | 110
18 | COc1ccc(C(=O)Nn2c(SCC(=O)NCC3CCCO3)nc3ccccc3c2=O)cc1 (configuration not stated) | 98
19 | Fc1ccc(C2=NC(C(F)(F)F)(C(F)(F)F)N=C(N3CCOCC3)O2)cc1 | 110
20 | Cc1c(NC(=O)/C(C#N)=C/c2cccc3ccccc23)c(=O)n(-c2ccccc2)n1C | 102
21 | COc1ccc(C2C(C#N)=C(N)N(c3ccc(Br)cc3F)C3=C2C(=O)CCC3)cc1O (configuration not stated) | 101
22 | O=C(NCc1ccco1)C1CCC(Cn2c(SCC(=O)N3CCN(c4ccccc4)CC3)nc3ccccc3c2=O)CC1 (configuration not stated) | 107
23 | O=C1CC(c2cccc(OCc3ccccc3)c2)c2cnn(-c3nc4ccccc4s3)c2N1 (configuration not stated) | 107
24 | Cn1c(=O)n(CC(=O)Nc2cccc(C(F)(F)F)c2)c(=O)c2ccccc21 | 105
25 | Cc1ccc2c(c1)Oc1cc(Cl)c(S(=O)(=O)N3CC(C)OC(C)C3)cc1C(=O)N2 (configuration not stated) | 102
26 | CCOc1cc(/C=C2/SC(N)=NC2=O)ccc1OCc1ccc(F)cc1 | 110
27 | C=CC(=O)N1c2ccccc2C(C)(c2ccc(C)cc2)CC1(C)C (configuration not stated) | 110
28 | O=C(NCC1CCCO1)c1nnc(-c2ccc(S(=O)(=O)N3CCCC3)cc2)o1 (configuration not stated) | 105
29 | CCOc1ccc(C2C(N3C(=O)c4ccccc4C3=O)C(=O)N2c2ccc(Cl)cc2C)cc1 (configuration not stated) | 117
30 | Cc1cc(N(C)C)nc(Nc2ccc(NC(=O)CCC3CCCC3)cc2)n1 | 104
31 | COc1cccc(NC(=O)C2CCN(c3cc(C)nc4cc(-c5ccc(C)cc5)nn34)CC2)c1 | 107
32 | COc1ccc(Cl)cc1NC(=O)c1sc2ncn(CC(=O)Nc3ccc(C)c(Cl)c3)c(=O)c2c1C | 105
33 | COc1ccc(OC)c(NC(=O)c2cccc(N3C(=O)C4CC=CC(C)C4C3=O)c2)c1 (configuration not stated) | 104
34 | Cn1c(SCc2nc(-c3ccc(Cl)cc3)no2)nnc1-c1ccc2c(c1)OCCCO2 | 102
35 | O=C(NCc1nc2cccnc2n1Cc1ccccc1)c1ccc(Cl)cc1 | 109
36 | CN=C1SC(CC(=O)Nc2sc3c(c2C(=O)OC)CCCC3)C(=O)N1C (configuration not stated) | 102
37 | CC1CCC/C(=C(\C#N)c2nc(-c3ccccc3)cs2)C1 (configuration not stated) | 110
38 | CCSc1nc2ccc(NS(=O)(=O)Cc3ccc(Cl)cc3)cc2s1 | 102
39 | CC(=O)Nc1ccc(Nc2nc(C)cc(N(C)C)n2)cc1 | 105
40 | Cc1nc2c(C(=O)N3CCC4(CC3)OCCO4)cnn2c(C)c1Cc1ccccc1Br | 107

# Filtered by structure, the compounds so far containing a CF3 group
no. | compound | GIV Gai3 FP
19 | Fc1ccc(C2=NC(C(F)(F)F)(C(F)(F)F)N=C(N3CCOCC3)O2)cc1 | 110
24 | Cn1c(=O)n(CC(=O)Nc2cccc(C(F)(F)F)c2)c(=O)c2ccccc21 | 105

# Continuation.
no. | compound | GIV Gai3 FP
41 | CC(=O)OC[C@H]1O[C@@H](n2cnc3c(=O)[nH]cnc32)C(OC(C)=O)[C@H]1OC(C)=O (some centres not stated) | 111
42 | Brc1cccc(C2Nc3cccc4cccc(c34)N2)c1 | 121
43 | CC(C)(C)c1csc(-c2csc(S(=O)(=O)Nc3cccc(Cl)c3F)c2)n1 | 109
44 | CN(C)c1ccc(C2C3=C(CC(C)(C)CC3=O)Nc3ccc4ccccc4c32)cc1 (configuration not stated) | 104
45 | CC1CCN(S(=O)(=O)c2cc(-c3ccc(N4CCCC(C)C4)nn3)cs2)CC1 (configuration not stated) | 110
46 | CC1CCN(S(=O)(=O)N2CCCC(C(=O)NCCN3CCOCC3)C2)CC1 (configuration not stated) | 105
47 | COc1ccc(C2Nc3cccc4cccc(c34)N2)c(OC)c1OC | 110
48 | C=CCNc1ncnc2c1cnn2-c1ccc(Cl)cc1 | 111
49 | CSc1nnc(-c2nn(C)c3c2CN(C(=O)C2CCC2)CC3)n1C | 100
50 | COc1ccc(NC(=O)CSC2=C(C#N)C(c3ccccc3)C(C(=O)Nc3ccccc3)=C(C)N2)cc1 (configuration not stated) | 116

# 7 compounds already listed, sorted by the number in GIV Gai3 FP, ascending.
entry | Structure | GIV Gai3 FP
49 | CSc1nnc(-c2nn(C)c3c2CN(C(=O)C2CCC2)CC3)n1C | 100
46 | CC1CCN(S(=O)(=O)N2CCCC(C(=O)NCCN3CCOCC3)C2)CC1 (configuration not stated) | 105
43 | CC(C)(C)c1csc(-c2csc(S(=O)(=O)Nc3cccc(Cl)c3F)c2)n1 | 109
45 | CC1CCN(S(=O)(=O)c2cc(-c3ccc(N4CCCC(C)C4)nn3)cs2)CC1 (configuration not stated) | 110
48 | C=CCNc1ncnc2c1cnn2-c1ccc(Cl)cc1 | 111
50 | COc1ccc(NC(=O)CSC2=C(C#N)C(c3ccccc3)C(C(=O)Nc3ccccc3)=C(C)N2)cc1 (configuration not stated) | 116
42 | Brc1cccc(C2Nc3cccc4cccc(c34)N2)c1 | 121

# (listing goes on)
no. | compound | GIV Gai3 FP
51 | Cc1onc(-c2ccccc2Cl)c1C(=O)Nc1sc2c(c1C#N)CCC(C)C2 (configuration not stated) | 109
52 | COc1ccc(-c2nnc(SCC(=O)N3CCN(C)CC3)nc2-c2ccc(OC)cc2)cc1 | 108
53 | CCc1nnc(NC(=O)c2sc3nc(C)cc(C(F)(F)F)c3c2N)s1 | 121
54 | CCOC(=O)c1c(NC(=O)c2ccccc2Cl)sc2c1CCN(C(=O)OCC)C2 | 118
55 | O=C(CSc1nc2ccccc2c(=O)n1CC1CCC(C(=O)NCc2ccco2)CC1)NCCC1=CCCCC1 (configuration not stated) | 109
56 | COc1ccc(CNS(=O)(=O)c2c(C)nn(-c3ccc(-c4ccc(C)cc4)nn3)c2C)cc1 | 104
57 | Cc1ccc(S(=O)(=O)N2CCC3(CC2)NCCN=C3NC(C)(C)C)cc1C | 103
58 | CC(C)(C)NS(=O)(=O)c1cccc2nonc12 | 109
59 | Cc1c(C(=O)N2CCN(Cc3ccc4c(c3)OCO4)CC2)sc2ncn(CC(=O)N3CCCCC3)c(=O)c12 | 106
60 | N#Cc1cc2c(nc1SCC(=O)C13CC4CC(CC(C4)C1)C3)CCC2 | 114
61 | CCc1cccc(-n2nnnc2N2CCN(C(=O)Nc3ccc(C)c(C)c3)CC2)c1 | 102
62 | Cc1ccc(-c2nc3sc(CCNS(=O)(=O)c4ccccc4)c(C)n3n2)cc1 | 98
63 | N#CC1(C#N)[C@H](c2ccc(F)cc2)[C@@H](C(=O)c2cccs2)N2c3ccccc3C=C[C@@H]21 | 117
64 | O=C1COc2ccc(S(=O)(=O)NC3CC3)cc2N1Cc1noc(C2CCC2)n1 | 101
65 | CC(C)NC(=O)C1CCCN(c2cc(=O)n(C)c(=O)n2C)C1 (configuration not stated) | 110
66 | CCCCCNC(=O)CCc1nnc2c(N3CCCCC3)nc3ccccc3n12 | 113
67 | O=C(CSc1nc2cc(C(=O)NCc3ccco3)ccc2c(=O)n1Cc1ccco1)NCC1CCCO1 (configuration not stated) | 117
68 | Cc1c(Cl)c([N+](=O)[O-])nn1CC(=O)Nc1sc2c(c1C(=O)OC(C)C)CCCC2 | 109
69 | COc1ccccc1Cn1c(=S)[nH]c2cc(C(=O)N3CCc4ccccc4C3)ccc2c1=O | 107
70 | CCOc1ccc2c(c1)-c1c(ssc1=S)C(C)(C)N2C(=O)CN1C(=O)CCC1=O | 122
71 | COc1cccc(NC(=O)Nc2ccc(Nc3nc(C)cc(N4CCCCC4)n3)cc2)c1 | 104
72 | Cc1cc2c(cc1C)N(C(=O)c1cccs1)C(C)(C)c1ssc(=S)c1-2 | 108
73 | O=S(=O)(NCc1ccc(Br)cc1)c1cc(-c2noc(C3CC3)n2)cs1 | 97
74 | COC(=O)C1=C(C(=O)OC)SC(=C2C(=S)C(C)(C)N(C(=O)COc3ccc4ccccc4c3)c3ccc(OC)cc32)S1 | 111
75 | COC(=O)c1cc(NC(=O)CSc2ncnc3sc(C)c(C)c23)cc(C(=O)OC)c1 | 103
76 | O=C1Nc2ccccc2C12CCN(S(=O)(=O)c1cccc(F)c1)C2 (configuration not stated) | 100
77 | Cc1c(C(=O)NC2CCN(Cc3ccccc3)CC2)sc2nc[nH]c(=O)c12 | 114
78 | Cc1cc(C)cc(-c2cc3nc(C)cc(N4CCC(C(=O)NC5CC5)CC4)n3n2)c1 | 111
79 | Cc1ccc(-c2csc(SCc3noc(CCC(=O)Nc4cc(C)on4)n3)n2)cc1 | 107
80 | COc1cc(C2CC(=O)NC(SCC(=O)Nc3ccccc3C)=C2C#N)cc(Br)c1O (configuration not stated) | 106
81 | Cc1ccccc1NCN1C(=O)C2CCC(C)(C1=O)C2(C)C (configuration not stated) | 103
82 | CC(=O)N1CCn2c3c(c4cc(C5CCCCC5)ccc42)CCCC31 (configuration not stated) | 126
83 | Cc1ccc(-c2ccc(-n3nc(C)c(S(=O)(=O)NCc4ccccc4)c3C)nn2)cc1 | 102
84 | COc1cc(C2CC(=O)Nc3c2c(C)nn3-c2ccc3nnc(C)n3n2)ccc1OC(C)C (configuration not stated) | 98
85 | Nc1c(C(=O)Nc2ccc(Cl)cc2)sc2nc3c(cc12)C(=O)CCC3 | 103
86 | Fc1ccc(Cn2c3ccccc3c3nc4ccccc4nc32)cc1 | 109
87 | COc1ccc(N2C(=O)/C(=C/c3ccccc3OC)N=C2c2ccc(OC)c(OC)c2)cc1Cl | 120
88 | Cc1nn(CC(=O)NC(C)(C)C)c(C)c1S(=O)(=O)N1CCCC(C(=O)N2CCOCC2)C1 (configuration not stated) | 106
89 | Cc1c(C(=O)N2CCC(C)CC2)sc2ncn(C)c(=O)c12 | 105
90 | O=C1C2=C(C(c3ccccc3)=NCCN2)C(c2ccc(F)cc2)N1c1cccc(C(F)(F)F)c1 (configuration not stated) | 107
91 | Cc1noc(C)c1C1CCCN1C(=O)c1ccccc1F (configuration not stated) | 98
92 | CCCS(=O)(=O)c1c(S(=O)(=O)CCC)c2cc(-c3ccncc3)ccn2c1C(=O)N/N=C/c1cccc(F)c1 | 119
93 | N#CC(=C1CCCCC1)c1nc(-c2ccccc2)cs1 | 124

# Screening results from PubChem.
